Vaccinia mCherry – inhibitors of vaccinia virus infection (mCherry reporter signal); Potency, µM (doses to about 36.5 µM), for the others: at the top dose activity change, negative = inhibition, usual class: inhibitors; hit rate 0.63% among 310,000; AID 720579; Vaccinia virus mCherry reporter infection, fluorescence; about a quarter of the inactives have no number; active = well fitted inhibition curve with a large enough effect; inconclusive = small, poorly fitted or top-dose-only effect; inactive = no such curve, though single readings can be large or run the other way; tested in A549 cells; note: nearly all actives have a fitted effect of over 35% in size; inactives centre near -10
VACV Venus inh – inhibitors of vaccinia virus (Venus reporter); Vaccinia virus Venus reporter expression, fluorescence; Potency, µM (titrated, usually from 36.5 µM), for inactives: at the top dose activity change, negative = inhibition, usual class: inhibitors; hit rate 0.46% among 330,000; AID 720580; active means well fitted inhibition curve with a large enough effect; inconclusive means small, poorly fitted or top-dose-only effect; inactive means no such curve, though single readings can be large or run the other way; tested in A549 cells; note: nearly all actives have a fitted effect of over 30% in size; inactives centre near -10
* hit, by the source's call; i = inactive; ? = inconclusive; · = no result given; [ ] = remark or other dose. % is set by controls: 0 for no effect and ±100 for the full control effect; potency is the fitted concentration of half-maximal effect.

SMILES	Vaccinia mCherry	VACV Venus inh
CS(=O)(=O)Nc1ccccc1C(=O)NCCSc1ccccc1	i	-11.4%
CCc1ccc(NS(=O)(=O)c2ccc3[nH]cc(C(=O)NCc4ccc(C)cc4)c(=O)c3c2)cc1	-19.7%	-24.3%
FC(F)(F)c1ccc(/C=N/n2c(COc3ccccc3)n[nH]c2=S)cc1	-9.1%	-21.9%
Cn1nc(-c2ccccc2F)c2cc(C(=O)NCc3cccc(Cl)c3)sc21	-10.4%	-3.3%
CNC(=O)/C(=C\c1cccc(Oc2ccccc2)c1)NC(=O)c1ccccc1	-7.6%	-9.6%
O=C(NC1CC1)c1ccc(Cn2c(SCc3cccc(F)c3)nc3cccnc32)cc1	-5.6%	-15.5%
COc1cccc(-c2cnc(C(O)c3ccccc3)[nH]2)c1 (stereo not drawn)	i	-8.3%
CCCCC(=O)Nc1ccc(NC(=S)NC(=O)CC(C)C)cc1OC	-28.4%	-14.0%
Cc1ccc(N2CC(C(=O)NC3CC3)CC2=O)cc1Cl (stereo not drawn)	i	-4.2%
Brc1ccccc1-c1nnc2sc(-c3ccc4c(c3)OCCO4)nn12	-12.1%	?
O=C(COC(=O)c1cc(S(=O)(=O)N2CCOCC2)ccc1F)NCc1ccc2c(c1)OCO2	-24.1%	-5.6%
Cc1ccc(NC(=O)CNC(=O)c2ccco2)cc1Cl	-4.7%	-13.9%
O=C(Nc1ccc(F)c(Cl)c1)c1ccc2sc([C@H]3C[C@H](O)[C@@H](CO)O3)nc2c1	-11.9%	-8.1%
O=C(COc1ccc(S(=O)(=O)N2CCCCC2)cc1Cl)N1CCOCC1	-11.3%	-9.0%
CC(C)N1C(=O)C(O)(c2c[nH]c3ccccc23)c2ccccc21 (stereo not drawn)	-4.1%	-6.6%
CCC(C(=O)OCC(=O)N(C)c1c(N)n(Cc2ccccc2)c(=O)[nH]c1=O)c1ccccc1 (stereo not drawn)	i	-2.1%
CCOc1ccc(C2C(=O)N(C3CCCCC3)CC(=O)N2CCC2=CCCCC2)cc1OC (stereo not drawn)	i	-13.0%
CCOC(=O)CNC(=O)c1cc2c(=O)n3cccc(C)c3nc2n1C	-4.8%	-0.3%
O=C1/C(=C\c2ccc(O)cc2)CCC1CNc1ccc(Cl)cc1 (stereo not drawn)	i	-15.5%
COc1cc(OC)cc(N(C(=O)CNC(=O)c2cccs2)C(C(=O)NCC2CCCO2)c2ccccc2)c1 (stereo not drawn)	-22.1%	-8.9%
Cc1ccc(-c2noc(CCCc3ccccc3)n2)cc1	·	-16.4%
Cc1cc(NC(=O)c2ccc(Br)c([N+](=O)[O-])c2)no1	-3.5%	-8.7%
COc1ccc(/C(N)=N/OC(=O)c2ccc3c(c2)OCO3)cc1OC	-11.6%	-22.9%
COc1ccc(NC(=O)Nc2cccc3c2O[C@H](CN(C)S(=O)(=O)c2c(C)noc2C)[C@@H](C)CN([C@H](C)CO)C3=O)cc1	-12.7%	-10.8%
COc1ccccc1C(=O)Nc1ccc(NC(=O)c2cccs2)cc1	?	?
COc1ccc(/C(C)=N\NC(=O)CNC(=O)C(c2ccccc2)c2ccccc2)cc1OC	-18.6%	?
CCOc1c(Cl)cc(CNCc2ccccn2)cc1OC	-24.5%	-8.8%
COc1c(Cl)cccc1-c1cn2ccccc2n1	i[7.34 µM]	-6.8%[7.34 µM]
N#Cc1ccccc1NC(=O)c1ccc(-c2ccccc2Cl)o1	·	?
CN1C(=S)SC(N(O)C(=O)Nc2cccc3ccccc23)C1(C)C (stereo not drawn)	·	4.4%

Copied from the list.
O=C1/C(=C\c2ccc(O)cc2)CCC1CNc1ccc(Cl)cc1 (stereo not drawn) in VACV Venus inh = -15.5%
CN1C(=S)SC(N(O)C(=O)Nc2cccc3ccccc23)C1(C)C (stereo not drawn) in VACV Venus inh = 4.4%
CCC(C(=O)OCC(=O)N(C)c1c(N)n(Cc2ccccc2)c(=O)[nH]c1=O)c1ccccc1 (stereo not drawn) in VACV Venus inh = -2.1%

Next section:
SMILES	Vaccinia mCherry	VACV Venus inh
CCOC(=O)C1=C(COC(=O)COc2ccc(C(C)=O)cc2)NC(=O)NC1C (stereo not drawn)	-11.7%	4.2%
COC(=O)[C@@]12C[C@@H](CC(=O)N3CCCCC3)C(=O)N(Cc3ccco3)C1=CCC(C)(C)C2	-16.4%	-4.3%
COc1cc(C(=O)OCCNC(=O)c2ccncc2)cc(OC)c1OC	-9.7%	-11.5%
O=C(CN1C(=O)NC2(CCc3ccccc32)C1=O)NCc1ccc(F)cc1 (stereo not drawn)	-9.3%	-20.2%
O=C(CSc1nc2c(sc3ccccc32)c(=O)n1CCO)NCC1CCCO1 (stereo not drawn)	i	-18.6%
CSCCC(NS(=O)(=O)c1ccccc1F)C(=O)Nc1cccc(C)n1 (stereo not drawn)	-5.5%	-16.6%
Cn1c(=O)cc(SCC(=O)Nc2cccnc2)c2ccccc21	i	?
Cc1ccc(C2=NS(=O)(=O)N(C)C(C(=O)NC3CCCCC3)=C2)cc1	i	-13.6%
CC(=O)Nc1ccc(NC(=O)CC(C)n2ccc(C)n2)cc1 (stereo not drawn)	-9.4%	-10.3%
O=C1CCCN1CC1CCN(Cc2nc(CC3CC3)no2)CC1	i	-6.4%
OC1CCC(Nc2ccn3nc(-c4cccc(OCc5ccccc5)c4)cc3n2)CC1 (stereo not drawn)	i	-8.0%
Cc1ccc(CS(=O)(=O)CCC(=O)NCc2cccs2)cc1	-11.8%	-24.1%
COc1ccc(NC(=O)N2CCCCC2c2cccnc2)cc1 (stereo not drawn)	i	-12.1%
COCc1c(C(=O)N2CCN(C3CCCCC3)CC2)cnn1-c1ncc(C)c(-c2cccs2)n1	-1.7%	-10.9%
CC1=CC(C)(C)NC(=S)N1c1ccc(N(C)C)cc1	-8.3%	-2.2%
Cn1cnnc1SC(C(=O)Nc1ccc(F)cc1)c1ccccc1 (stereo not drawn)	·	-0.4%
CCC1(C)Cc2c(sc3c2c(=O)n(C)c2nnc(SCc4ccccc4)n32)CO1 (stereo not drawn)	-15.8%	-6.6%
Cc1cccc(N2CCN(S(=O)(=O)c3cn(C)c(C)n3)CC2)c1C	-6.6%	-7.4%
Cc1nn(-c2ccc(Cl)cc2)c(=O)c2c(C)noc12	i	-6.5%
COc1ccc(OC)c(C(=O)NC2CCSc3ccccc32)c1 (stereo not drawn)	i	-11.1%
Cc1ccc(N=C(N(C)C)P(=O)(N(C)C)N(C)C)c(C)c1	-1.5%	2.2%
CCOc1ccc(CCNC(=O)c2ccc3nc(N4CCC(C)CC4)sc3c2)cc1OCC	-22.4%	-9.4%
Cc1ccc(OCC(=O)N2CCCC(CO)(CCOc3ccccc3)C2)cc1 (stereo not drawn)	i	-15.0%
COc1ccccc1CNC(=O)C1CC(c2ccccc2C(F)(F)F)=NO1 (stereo not drawn)	-24.2%	-14.1%
CC(=O)NC(CCS(C)(=O)=O)C(=O)Nc1ccc(Oc2ccccc2)cc1 (stereo not drawn)	i	-20.4%
O=C(Nc1cccc([N+](=O)[O-])c1)c1ccncc1	-17.8%	-15.9%
CCCCCOc1ccccc1C(=O)NCC(=O)O	-7.4%	-1.9%
COc1ccc(C(=O)N(CCc2ccccc2)Cc2cccs2)c(OC)c1	-13.9%	-20.6%
COc1ccc(NC(=O)c2sc3nc(C(F)(F)F)cc(C)c3c2N)cc1OC	-1.2%	3.2%
O=C(COC(=O)c1nc(Cl)ccc1Cl)Nc1ccc2c(c1)OCO2	i	7.2%

An excerpt of these results, with values under each structure.
Values run as follows: Vaccinia mCherry | VACV Venus inh
COc1ccc(OC)c(C(=O)NC2CCSc3ccccc32)c1 (stereo not drawn)
    i | -11.1%
COc1ccc(C(=O)N(CCc2ccccc2)Cc2cccs2)c(OC)c1
    -13.9% | -20.6%
Cn1cnnc1SC(C(=O)Nc1ccc(F)cc1)c1ccccc1 (stereo not drawn)
    · | -0.4%
CCCCCOc1ccccc1C(=O)NCC(=O)O
    -7.4% | -1.9%
Cc1cccc(N2CCN(S(=O)(=O)c3cn(C)c(C)n3)CC2)c1C
    -6.6% | -7.4%

Additional entries:
SMILES	Vaccinia mCherry	VACV Venus inh
CCC(C)c1ccccc1NC(=O)COC(=O)c1ccc2c(c1)S(=O)(=O)c1ccccc1C2=O (stereo not drawn)	-6.8%	-0.4%
CCC(=O)N1CCCC(C(=O)Nc2nc3ccccc3n2C)CC1 (stereo not drawn)	i	-8.3%
CC(C)CNC(=O)c1cccc(Cn2cc(Cl)cn2)c1	-9.3%	-5.5%
Cc1ncc(C(O)c2ccc(N(C)C)cc2)n1Cc1ccccc1 (stereo not drawn)	i	-9.8%
CCN(CC(=O)Nc1c(F)cccc1F)C(=O)CCc1nc2cc(S(=O)(=O)N(C)C)ccc2n1CC	-14.9%	-11.0%
Cc1ccc(NS(=O)(=O)c2ccc(NC(=O)[C@@H]3CCCC[C@@H]3C(=O)O)cc2)c(C)c1	·	-12.2%
CN[C@@H](CO)C(=O)NC[C@H]1O[C@@H](n2cnc3c(N)ncnc32)[C@H](O)[C@@H]1O	12.8%	6.9%
CN1c2ccccc2C(C)(C)C12C=Cc1cc(O)ccc1O2 (stereo not drawn)	i	62.5%[activator]
CCc1ccc(CN2CCC(n3nccc3NC(=O)C3CCCC3)CC2)cc1	-2.4%	-14.1%
C[C@@H]1CN([C@H](C)CO)C(=O)Cc2cc(NS(=O)(=O)c3ccc(F)cc3)ccc2O[C@H]1CN(C)Cc1ccc(C(=O)O)cc1	i	-0.3%
CC(=O)NS(=O)(=O)c1ccc(NC(=O)CCc2ccccc2)cc1	-15.5%	-10.3%
CCOc1cc(/C=N/Nc2nc3ccccc3[nH]2)cc(Br)c1OCC(=O)N(C)C	?	?
COc1ccc(NC(=O)C2C(=O)N(CCO)C3(C)CC2c2ccccc2O3)cc1 (stereo not drawn)	·	-17.4%
Cc1ccc2c(CN(C)Cc3ccccc3)cc(=O)oc2c1C	-23.0%	-2.6%
CCN(C[C@H]1N[C@@](Cc2ccccc2)(C(=O)OC)[C@H]2C(=O)N(C)C(=O)[C@@H]12)S(=O)(=O)c1ccc(C(C)(C)C)cc1	-3.0%	-19.8%
Cc1cc(OCC(=O)N2C[C@H]3C[C@@H](C2)c2cccc(=O)n2C3)c2c(C)c(C)c(=O)oc2c1	-2.5%	0.6%
Cc1ccc(S(=O)(=O)N2CCOC23CCN(C(=O)C(=O)NCc2ccccc2)CC3)cc1	i	-12.0%
C=CC[C@@H](CC(=O)N[C@H](CO)Cc1ccccc1)C(=O)NC[C@@H](OC(=O)[C@@H](CC=C)Cc1ccc(F)cc1)c1ccccc1	i	-19.9%
CN1C[C@@H]2[C@@H]3C(=O)N(C)C(=O)[C@@H]3[C@](C)(C1=O)N2C(=O)c1ccc(C(C)(C)C)cc1	i	-3.6%
CC1C(=O)Nc2ccc(S(=O)(=O)NCc3ccc(N(C)C)cc3)cc2NC1=O (stereo not drawn)	i	-1.0%
c1cncc(C2CCCCN2Cc2ccc3c(c2)OCO3)c1 (stereo not drawn)	-15.3%	-6.0%
CCN1CCN(CCCNC(=O)CCC(=O)N2CCOc3ccccc32)CC1	i	0.9%
O=S(=O)(Nc1ccc2c(c1)OCCO2)c1ccc(F)c(F)c1	-7.4%	-8.3%
COc1ccc(-c2cc(C(F)(F)F)nc(N3CCN(C)CC3)n2)cc1OC	-11.5%	-20.1%
COc1ccc(-c2ccc(SCC(=O)c3ccccc3)nn2)cc1OC	i	-8.0%
CCc1ccc(CNC(=O)c2ccc(CS(=O)(=O)Cc3ccccc3C)o2)cc1	-5.4%	2.5%
Cn1ccc2c(OCC(=O)NCc3ccccc3Cl)cccc2c1=O	-6.2%	8.1%
CCN(CC)S(=O)(=O)N1CCC(C(=O)NCc2ccco2)CC1	i	-13.7%
O=C(O)C1CSC(c2ccncc2)N1 (stereo not drawn)	5.5%	1.0%
CCCCN(CCCC)C(=O)CSc1nnc2n(C)c(=O)c3c4c(sc3n12)CCCC4	·	-5.2%
O=C1c2ccccc2C(=O)c2c1ccc(C(=O)N1CCCCC1)c2NCCO	·	-9.6%
Cc1cc(C)cc(OCCNC(=O)C(C)N2C(=O)c3ccccc3C2=O)c1 (stereo not drawn)	i	1.7%
CCCn1nc(C(=O)Nc2cccc(S(=O)(=O)N3CCOCC3)c2)c2ccccc2c1=O	-2.7%	-10.7%
C[C@H](OC(=O)c1[nH]cnc1C(=O)N1CCN(C(=O)OC(C)(C)C)CC1)c1ccccc1	-7.1%	-19.0%
CCOC(=O)C1CCCN(C(=O)Cn2nc(C)n3c(cc4c(OC)cccc43)c2=O)C1 (stereo not drawn)	21.3%[7.34 µM]	22.1%[7.34 µM]
COc1ccc(-c2[nH]ncc2CN2CCCC2c2nonc2C)c(F)c1 (stereo not drawn)	-3.9%	4.8%
Cc1noc(C)c1C(=O)NCc1ccccc1Br	i	-8.5%
N=c1n(CCN2CCCCC2)c2ccccc2n1CC(O)c1cccc(Br)c1 (stereo not drawn)	?	?
Cc1cccc(CSc2ncc(Cl)c(C(=O)Nc3sc4c(c3C#N)CCCC4)n2)c1	-6.2%	3.8%
CCCNC(=O)c1ccc2c(=O)c(O)c(C)[nH]c2c1	-22.4%	9.1%

In the list so far, these have a CF3 group.
SMILES	Vaccinia mCherry	VACV Venus inh
FC(F)(F)c1ccc(/C=N/n2c(COc3ccccc3)n[nH]c2=S)cc1	-9.1%	-21.9%
COc1ccccc1CNC(=O)C1CC(c2ccccc2C(F)(F)F)=NO1 (stereo not drawn)	-24.2%	-14.1%
COc1ccc(NC(=O)c2sc3nc(C(F)(F)F)cc(C)c3c2N)cc1OC	-1.2%	3.2%
COc1ccc(-c2cc(C(F)(F)F)nc(N3CCN(C)CC3)n2)cc1OC	-11.5%	-20.1%
